Menin-MLL FL inh – menin-MLL binding inhibition, fluorescein peptide. Fluorescence polarization, fluorescein-MLL peptide displacement from menin. FP activity change, % at 61.4 µM. 290,000 tested, under 10 active. AID 1766; inconclusive = falling polarisation curve, or a change in total fluorescence; inactive = total fluorescence flat and polarisation flat or rising; no compound was filed as active; the % refers to the polarisation; negative = inhibition;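 note: % of control where 0% means no effect; inhibitors lower the polarisation; unlabelled MLL peptide was the positive control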
TRPV1 potentiator – potentiators of human vanilloid receptor 1 (TRPV1). TRPV1-expressing cells, Fluo-8 calcium influx, capsaicin EC20 potentiation; host cell line not named in the record; control for the full effect not named in the record. Q8NER1. potentiation, % at 8.33 µM. 320,000 compounds, 0.02% hits. AID 540277; active means potentiation above 80%; inconclusive means 30% to 80%; inactive means below 30%; note: 0% is about no effect
Target sequence (Q8NER1 whole entry, looked up): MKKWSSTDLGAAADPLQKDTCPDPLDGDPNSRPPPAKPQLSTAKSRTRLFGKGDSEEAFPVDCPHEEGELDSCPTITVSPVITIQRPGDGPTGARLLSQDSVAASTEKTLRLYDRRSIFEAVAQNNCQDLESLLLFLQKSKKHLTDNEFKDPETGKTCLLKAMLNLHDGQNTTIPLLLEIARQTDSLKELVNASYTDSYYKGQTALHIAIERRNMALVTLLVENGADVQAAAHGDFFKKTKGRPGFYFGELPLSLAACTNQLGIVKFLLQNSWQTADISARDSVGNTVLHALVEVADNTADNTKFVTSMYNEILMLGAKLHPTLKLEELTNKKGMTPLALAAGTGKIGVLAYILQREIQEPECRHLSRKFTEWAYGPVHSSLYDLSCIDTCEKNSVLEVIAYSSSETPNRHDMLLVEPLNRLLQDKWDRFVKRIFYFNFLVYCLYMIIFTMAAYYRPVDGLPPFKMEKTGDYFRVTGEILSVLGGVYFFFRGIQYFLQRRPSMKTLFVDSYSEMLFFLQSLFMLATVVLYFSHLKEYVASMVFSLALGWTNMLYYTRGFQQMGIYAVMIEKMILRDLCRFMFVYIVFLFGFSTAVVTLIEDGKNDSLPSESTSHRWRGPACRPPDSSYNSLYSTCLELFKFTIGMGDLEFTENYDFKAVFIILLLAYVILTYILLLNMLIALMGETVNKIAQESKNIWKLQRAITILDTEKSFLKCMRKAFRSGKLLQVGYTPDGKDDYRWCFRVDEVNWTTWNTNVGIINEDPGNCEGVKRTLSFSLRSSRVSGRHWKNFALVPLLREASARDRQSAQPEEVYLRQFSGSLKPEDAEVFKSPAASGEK
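Cells expressing TRPV1 were dye-loaded with Fluo-8 and read kinetically: 10 s baseline, 3 min after compound (agonist portion), then 2 min after EC20 capsaicin (allosteric enhancer portion). Calcium-bound dye fluorescence at 480/520 nm.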
ClpP mod – qHTS Assay for Activators of ClpP. 340,000 compounds, 1.9% hits. ATP-dependent Clp protease proteolytic subunit (Bacillus subtilis (strain 168)), P80244. Potency, µM (highest dose often 57.5 µM), for the others: at the top dose activity change, negative = active. purified B. subtilis ClpP, FRET peptide cleavage, 20 min. AID 651965, 2013; active = well fitted falling curve with a large enough effect; inconclusive = small, poorly fitted or top-dose-only effect; inactive = no such curve, though single readings can be large or run the other way; note: potency is the fitted concentration of half-maximal effect; the source files actives as falling curves though it sought activators and does not explain the sign; nearly all actives have a fitted effect of over 65% in size; many hits overshoot -100%
Target sequence (P80244 whole entry, looked up): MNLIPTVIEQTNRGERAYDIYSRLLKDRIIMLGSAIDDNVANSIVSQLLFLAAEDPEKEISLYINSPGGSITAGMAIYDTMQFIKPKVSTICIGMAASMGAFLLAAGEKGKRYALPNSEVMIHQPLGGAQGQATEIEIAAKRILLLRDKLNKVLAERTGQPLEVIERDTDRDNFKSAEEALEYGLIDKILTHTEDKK
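Buffer: 100 mM Tris/HCl pH8, 100 mM KCl, 0.05% low protease BSA, 2.5% glycerol, 0.01% Tween-20. ClpP 10 microg/mL final; 20 min RT; delta FRET normalized to ADEP and DMSO controls.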
TRPML1 blocker – human mucolipin-1 channel inhibition. activity change, negative = inhibition, % (no concentration beside the values). 390,000 compounds, 0.02% hits. AID 624415. TRPML1-inducible cells, Ca2+ dye fluorescence, FDSS; stronger effect = lower value; inhibition of EC80 agonist-evoked calcium signal; in the data active means activity change below about -50%; inconclusive means about -30% to -50%; inactive means above about -30%;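 note: stimulus is agonist 54-4 at its EC80 concentration; % is set by controls: 0 for no effect and ±100 for the full control effect; compound concentration not given in the record; the text of the record puts the active cut at -80%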
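Tet-induced TRPML1-DL cells loaded with Ca8 no-wash calcium dye were read kinetically on FDSS. Compound addition was followed by EC80 agonist 54-4 (4 uM final); inhibition was read over 110 s.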
TRPML1 ag – human mucolipin-1 channel agonism | TRPML1-expressing cells, Ca2+ dye fluorescence, FDSS; host cell line not named in the record; reference of the full effect not given here | activation, % (no concentration beside the values) | 410,000 compounds, 0.12% hits; in the data active = activation above about 50%; inconclusive = about 30% to 50%; inactive = below about 30%; note: 0% is about no effect; the text of the record puts the active cut at 80%
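Tetracycline-induced TRPML1-DL cells are seeded and incubated overnight before loading with a no-wash Ca2+ dye and quencher. Agonist activity is taken from the 110 s fluorescence read following compound pin-transfer on an FDSS, before EC80 54-4 challenge.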
PINK1 modulator – PINK1 expression modulation | PINK1 immunofluorescence, high-content cytometry, 24 h | Potency, µM (top dose mostly 76.6 µM), without a hit: at the top dose activation (PINK1 increase), hits mostly activators | 410,000 compounds, 0.2% hits; active = well fitted activation curve with a large enough effect; inconclusive = small, poorly fitted or top-dose-only effect; inactive = flat fitted curve, though single readings scatter; cell line not stated here;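 note: potency is the fitted concentration of half-maximal effect; % of control where 0% means no effect; nearly all actives have a fitted effect of over 65% in size; a mitochondrial uncoupler was the plate control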
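Decision-based qHTS: stable cells, 24 h exposure to five compound concentrations, CCCP as control. Fixed cells stained for PINK1 plus nuclear, mitochondrial and cell markers, cytometer read.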
Sfp inh – inhibitors of Bacillus subtilis Sfp phosphopantetheinyl transferase; Biochemical Sfp PPTase activity, qHTS; Potency, µM, for inactives: max response, negative = inhibition, hits mostly inhibitors; 310,000 compounds, 3.5% hits; Q9F4F7; active = well fitted inhibition curve with a large enough effect; inconclusive = small, poorly fitted or top-dose-only effect, or another doubt; inactive = no such curve, though single readings can be large or run the other way;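 note: the enzyme is Sfp with the accession as filed and its product quenches rhodamine fluorescence; potency is the fitted concentration of half-maximal effect; 0% = enzyme reaction without inhibitor and -100% = no enzyme wells; top concentration of the series not given in the record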
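Sfp 15 nM + cpd, 15 min RT; start w/ rhodamine-CoA 5 uM, BHQ-2-YbbR 12.5 uM (final); 50 mM Hepes pH 7.6, 10 mM MgCl2, 0.01% NP-40, 0.01% BSA; read 525/598 nm at 0 and 30 min.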
* hit, by the source's call; ? = inconclusive; nt = not tested or not shown; [ ] = remark or other dose.

Preview:
cpd	Structure	Menin-MLL FL inh	TRPV1 potentiator	ClpP mod	TRPML1 blocker	TRPML1 ag	PINK1 modulator	Sfp inh
1	COc1ccc(C(CNS(=O)(=O)c2ccc(C)cc2)N2CCN(C)CC2)cc1 (configuration not stated)	nt	-7	1.3%	-8	-0.4	1.0%	nt
2	CCn1c(COc2cccc3cccnc23)nnc1SCC(=O)OC	-0.9	7	-22%	31	1.6	0.0%	7%
3	O=C(Cc1c(C(=O)O)[nH]c2ccccc12)Nc1cccc(C(F)(F)F)c1	nt	nt	-1.0%	2	0.8	0.6%	nt

All compounds of this part, repeating the preview:
cpd	Structure	Menin-MLL FL inh	TRPV1 potentiator	ClpP mod	TRPML1 blocker	TRPML1 ag	PINK1 modulator	Sfp inh
1	COc1ccc(C(CNS(=O)(=O)c2ccc(C)cc2)N2CCN(C)CC2)cc1 (configuration not stated)	nt	-7	1.3%	-8	-0.4	1.0%	nt
2	CCn1c(COc2cccc3cccnc23)nnc1SCC(=O)OC	-0.9	7	-22%	31	1.6	0.0%	7%
3	O=C(Cc1c(C(=O)O)[nH]c2ccccc12)Nc1cccc(C(F)(F)F)c1	nt	nt	-1.0%	2	0.8	0.6%	nt
4	N#Cc1c2c(c(-c3ccccc3)[nH]c1=O)CCCC2	-1.1	-5	-12%	5	-0.6	0.4%	3%
5	CCOC(=O)c1ccc2c(c1)nc(-c1ccc(F)cc1)c1nccn12	0.9	-2	nt	27	0.6	0.2%	-2%
6	Cc1ccc(S(=O)(=O)NCc2ccccc2)cc1C(=O)N1CC(C)CC(C)C1 (configuration not stated)	nt	-18	2.0%	3	0.6	-1.3%	nt
7	O=C(/C=C/c1cccc([N+](=O)[O-])c1)c1ccco1	-4.0	-9	-2.4%	16	-0.2	2.0%	-16%
8	CCn1c(SCC(=O)Nc2ccccc2OC)nc(O)cc1=O	-2.7	29	0.1%	0	-0.5	3.8%	-7%
9	Cc1ccc(C)c(Cn2cc(S(=O)(=O)c3ccc(Cl)cc3)c(=O)c3cc(F)ccc32)c1	nt	nt	-1.2%	-9	-0.1	-1.0%	nt
10	C/C(=N\NC(=O)CN1CCN(c2ccc(F)cc2)CC1)c1ccco1	nt	nt	1.4%	-10	-0.7	-0.6%	nt
11	COc1ccccc1CN1CC[C@@]2(CCCN(C(=O)c3ccco3)C2)C1	-7.8	nt	nt	nt	nt	-0.5%	14%
12	Cc1onc(-c2ccccc2)c1C(=O)Nc1ccc2c(c1)OCCO2	0.8	?	0.4%	-3	0.4	1.6%[38.3 µM]	0%
13	COC(CSc1nc(N)c2c3c(sc2n1)CN(C)CC3)OC	nt	-4	5.2%	-6	0.4	1.9%	-2%
14	CCN1CCN(c2nc(-c3cccs3)nc3ccccc23)CC1	0.7	-16	-2.3%	4	-1.2	1.2%	3%
15	CCn1c(SCc2nc3ccccc3nc2C)nnc1-c1cccs1	-0.2	-2	-2.8%	22	0.2	1.7%	5%
16	Cc1ccc(Cc2c(-c3ccccc3)nc3cc(C)ccn23)cc1	nt	nt	4.5%	6	0.5	8.5%	nt
17	CSc1nc(Cl)c(Cc2ccc(OC(C)C)cc2)c(N2CCOCC2)n1	2.1	15	-5.4%	11	1.1	0.7%	-2%
18	COc1ccc(/C=C2\SC(=O)N(CCC(=O)N3CCCCC3CCO)C2=O)cc1 (configuration not stated)	nt	5	nt	11	-0.3	-1.3%	13%
19	CNC(=S)Nc1ccc(C23CC4CC(CC(C4)C2)C3)cc1	3.8	0	nt	6	-0.6	?	6%
20	Cc1ccc(C(=O)/C=C/c2ccco2)c(O)c1	8.3	1	0.7%	-10	1.3	12%	45µM*
21	CCCC(=O)N1CCC1(C)C(=O)Nc1ccc(C)cc1 (configuration not stated)	nt	nt	-0.6%	nt	1.2	3.8%	nt
22	Cc1ccc(-c2nn(-c3ccc(F)cc3)cc2C(=O)N(C)CC(=O)Nc2ccc(N3CCOCC3)cc2)cc1	nt	-3	nt	-4	0.1	6.2%	nt
23	CCCc1[nH]nc2c1C(c1ccc(OC(=O)N3CCOCC3)c(OC)c1)C(C#N)=C(N)O2 (configuration not stated)	-3.4	27	-0.6%	1	-0.4	0.7%[38.3 µM]	-1%
24	CCc1cc2c3c(c1)C(C)CC(C)(C)N3C(=O)C2=O (configuration not stated)	1.7	-7	-1.5%	47	1.4	6.9%	0%
25	O=C(NCCCN1CCC(Cc2ccccc2)CC1)C1CC(=O)N(C2CCCC2)C1 (configuration not stated)	5.4	11	-0.3%	-6	-0.1	-1.1%	9%
26	O=C(Nc1ccc(Cl)cc1)c1ccc2c(c1)OCO2	-0.2	-6	-1.4%	4	-0.2	3.8%	3%
27	CCOC(=O)C1(CCc2ccccc2)CCN(Cc2cc(OC)c(OC)cc2OC)CC1	-3.2	-13	1.5%	-4	-0.3	11%	20%
28	Cc1ccccc1OCCNc1cc(N2CCNCC2)ccc1[N+](=O)[O-]	-5.1	4	nt	nt	nt	nt	-2%
29	CCc1ccccc1NC(=O)C1(S(=O)(=O)c2ccc(Cl)cc2)CC1	nt	nt	-0.5%	-3	4.3	0.3%	nt
30	CCOCCCNC(=O)c1c(NC(=O)c2cc(=O)c3cc(C)c(C)cc3o2)sc2c1CCC2	nt	nt	2.6%	-17	0.8	-0.8%	nt
31	CC(C)CN(CC(C)C)CC(O)COc1ccccc1Br (configuration not stated)	8.8	-22	0.1%	1	15	14%	2%
32	O=C(CSc1nnc(CN2CCCC2)n1-c1ccc(F)cc1)c1ccc2c(c1)OCO2	nt	-20	-2.9%	13	0.3	-1.1%	nt
33	CC1(C(=O)N2CCN(c3ccc([N+](=O)[O-])cc3)CC2)CC1(Cl)Cl (configuration not stated)	1.8	4	1.1%	4	0.0	0.6%	19%
34	Cc1ccc(OCC(=O)NC(=S)Nc2ccc(Br)c(C)n2)cc1	1.6	5	1.7%	19	-0.5	-5.4%[38.3 µM]	19%
35	CCCCCc1c(-c2cccc(OC)c2)ncn1CCc1ccccc1OC	nt	nt	-0.1%	nt	0.5	?	nt
36	COc1cccc(CNC(=O)CCC2CCCN(C(=O)C3=CC(=O)CC(C)(C)O3)C2)c1 (configuration not stated)	0.2	-2	nt	4	1.4	0.0%	22%
37	Cc1ccc2onc(CNC(=O)N3CCN(c4cccc(C(F)(F)F)c4)CC3)c2c1	nt	nt	-1.5%	16	4.3	3.3%	nt
38	Cn1c(C2=C(O)CN(Cc3ccccc3)C2=N)nc2ccccc21	-2.4	nt	0.9%	nt	nt	1.6%	2%
39	Cc1ccc(NC(=O)c2oc3ccc(S(=O)(=O)N4CCCCCC4)cc3c2C)cc1Cl	nt	nt	-10%	3	-0.2	1.6%	nt
40	O=C(NCC(=O)N(c1cccnc1)C(C(=O)NC1CCCC1)c1ccccc1F)c1ccco1 (configuration not stated)	nt	3	0.4%	-5	-0.6	1.5%	8%
41	Cc1ccc2c(CN3CCCCC3C)cc(=O)oc2c1C (configuration not stated)	-14	-18	nt	-6	0.8	12%	-9%
42	COc1ccc(Nc2ncnc3sc4c(c23)CCCC4)cc1	nt	nt	-4.4%	12	0.9	-0.3%	nt
43	O=C(OCCO)c1c(-c2ccccc2)oc2c1C(OCCO)CCC2 (configuration not stated)	nt	nt	4.7%	nt	-0.4	3.1%	nt
44	CSc1ncccc1C(=O)Nc1ncc(C)s1	0.4	8	nt	31	0.7	3.1%	1%
45	O=S(=O)(c1ccc(Cl)c(NC(=S)Nc2ccccc2N2CCOCC2)c1)N1CCOCC1	14	-1	nt	34	-0.2	-1.5%	?
46	O=C(N/N=C/c1cccc(O)c1)c1ccc(COc2ccc3c(c2)CCC3)o1	1.2	11	-0.5%	-2	3.3	18%	0%
47	COc1ccc(-c2c(C(=O)c3ccc(Br)cc3)[nH]c(N)c2C(=O)c2ccccc2)cc1OC	nt	nt	0.7%	nt	-0.7	9.9%	nt
48	N#Cc1cc2c(=O)n3ccccc3nc2n(CCCN2CCOCC2)c1=O	-11	-10	-16%	-10	-0.3	-0.4%	2%
49	CC1=NN=C(c2ccccc2)C(c2c[nH]c3ccccc23)N1O (configuration not stated)	2.6	9	-3.0%	2	0.6	0.2%	27%
50	Cc1noc(C)c1S(=O)(=O)Nc1ccc2c(c1)C(=O)N([C@H](C)CO)C[C@H](C)[C@@H](CN(C)C(=O)Nc1ccc3c(c1)OCO3)O2	nt	nt	-9.5%	-2	-0.4	0.9%	nt
51	CCOc1ccc(OC(=O)c2cn(-c3cccc(OC)c3)c(=O)c3ccccc23)cc1	nt	nt	-11%	8	1.9	-0.1%	nt
52	CCN(CC)S(=O)(=O)c1ccc(N2CCOCC2)c(NC(=O)c2cc(Cl)c3c(c2)OCO3)c1	nt	nt	-16%	13	0.1	2.6%	nt
53	CCOc1cc(C(=O)Nc2cnccn2)cc(OCC)c1OCC	0.1	1	-4.9%	-1	-0.2	14µM*	16%
54	CC(=O)c1ccc(NC(=O)CSc2ccc(-c3cccs3)nn2)cc1	nt	nt	-1.2%	-14	1.6	1.1%	nt
55	COc1ccc(C[C@@H]2CN3C(=NC[C@@H]3C)N2C[C@H](C)NC(=O)c2ccc(C)c(Br)c2)cc1	1.5	-1	-1.0%	13	-0.1	-0.2%	-22%
56	COC(=O)C1CCN(C(=O)CN2C(=O)NC(CCc3ccccc3)C2=O)CC1 (configuration not stated)	-0.1	6	-1.2%	-5	-0.5	3.6%	26%
57	Cc1nnc(N2CCC(C(=O)NC(C)C)CC2)c2nn(-c3ccccc3)c(C)c12	nt	nt	-28%	20	2.2	0.3%	nt
58	Cc1ccc(NC(=O)NC(=O)N(c2ccccc2)S(C)(=O)=O)cc1	4.7	-13	-0.1%	2	0.5	-2.4%	15%
59	Cc1cc(C(=O)NNC(=O)c2ccc(C)c([N+](=O)[O-])c2)c(C)o1	nt	-4	nt	-1	0.0	3.6%	nt
60	CC(=O)c1cn(C2OC(CO)C3OC(C)(C)OC32)c(=O)n(C)c1=O (configuration not stated)	nt	nt	nt	-10	0.5	-1.6%	nt
61	COc1ccc(-c2nn(-c3ccccc3)cc2/C=N/NC(=O)c2ccc3c(c2)OCO3)cc1	5.6	?	nt	nt	nt	nt	15%

Rows are unselected. Share with any hit: about 4.4%.
